D2 potentiator – human D2 receptor positive allosteric modulation; P14416; DiscoveRx D2 beta-arrestin cells, luminescence, 90 min; 100% = 57 uM dopamine signal; 0.23% of 360,000 active; potentiation, % (concentration not given with the values); active = potentiation of 50% or more; inconclusive = 30% to 50%; inactive = 30% or less;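 note: compound concentration not given in the record; tested on top of an EC20 dose of dopamine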
Target sequence (P14416 whole entry, looked up): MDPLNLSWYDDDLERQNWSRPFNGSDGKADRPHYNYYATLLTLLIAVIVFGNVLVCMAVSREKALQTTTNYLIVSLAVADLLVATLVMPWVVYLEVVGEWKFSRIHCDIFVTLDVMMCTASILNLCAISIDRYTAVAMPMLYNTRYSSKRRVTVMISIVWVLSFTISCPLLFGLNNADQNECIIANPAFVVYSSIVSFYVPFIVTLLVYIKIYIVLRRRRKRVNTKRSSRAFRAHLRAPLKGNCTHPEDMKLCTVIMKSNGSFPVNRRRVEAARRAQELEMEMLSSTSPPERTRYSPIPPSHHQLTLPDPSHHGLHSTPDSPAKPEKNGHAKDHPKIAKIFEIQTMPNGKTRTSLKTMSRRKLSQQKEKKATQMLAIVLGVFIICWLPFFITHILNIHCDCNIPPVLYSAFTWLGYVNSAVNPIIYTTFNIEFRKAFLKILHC
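PathHunter beta-arrestin assay in DiscoveRx D2 cells. Compounds were added with an EC20 of dopamine (50 nM final) for 90 min at 37 deg C. Luminescence was read 1 h after detection reagent, with 57 uM dopamine as the EC100 control.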
D2 agonist – agonists of human D2 dopamine receptor (beta-arrestin); P14416; DiscoveRx PathHunter D2 beta-arrestin, luminescence, 90 min; 100% = 57 uM dopamine signal; activation, % (test concentration not listed); 0.084% of 360,000 active; AID 624465; in the data active = activation above about 40%; inconclusive = about 15% to 40%; inactive = below about 15%; note: compound concentration not given in the record; the text of the record calls up to 30% inactive
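DiscoveRx PathHunter D2 beta-arrestin cells (2,100/well) attached overnight, then compound-stimulated 90 min at 37 C in HBSS/10 mM HEPES/0.1% Tween-20 buffer; beta-galactosidase complementation read by luminescence after 1 h at ambient temperature. Dopamine 57 uM final (EC100) as control.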
PINK1 modulator – changes PINK1 expression; PINK1 immunofluorescence, high-content cytometry, 24 h; Potency, µM (titrated, usually from 76.6 µM), for the others: at the highest dose activation (PINK1 increase), most hits filed as activators; 0.2% of 410,000 active; active = well fitted activation curve with a large enough effect; inconclusive = small, poorly fitted or top-dose-only effect; inactive = flat fitted curve, though single readings scatter; cell line not stated here;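 note: potency is the fitted concentration of half-maximal effect; % of control where 0% means no effect; nearly all actives have a fitted effect of over 65% in size; a mitochondrial uncoupler was the plate control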
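Stable cell line, 250 cells/well, 12 h attachment; compounds pinned at 5 concentrations, 24 h; CCCP control. Fixed with nuclear dye, primary antibodies 12 h at 10 degrees C, secondary plus cell stain; laser-scanning cytometer read.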
Six1-Eya2 blk – inhibitors of human Six1/Eya2 interaction; Q15475+O00167; AlphaScreen GST-Six1/His-Eya2 binding, biochemical; hits give low values; control for the full effect not named in the record; activity change, % (test concentration not listed); 0.56% of 360,000 active; in the data active = activity change below about -65%; inconclusive = about -30% to -65%; inactive = above about -30%; note: % is set by controls: 0 for no effect and ±100 for the full control effect; compound concentration not given in the record
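AlphaScreen with GST-Six1 and His-Eya2 (5X mix: 250 nM and 500 nM), glutathione donor and nickel acceptor beads; buffer 50 mM Tris pH 8.0, 300 mM NaCl, 1 mM TCEP; 1 h at 37 C in the dark.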
TRPML1 inh – inhibitors of human TRPML1 channel | Q9GZU1 | TRPML1-inducible cells, Ca2+ dye fluorescence, FDSS; hits give low values; inhibition of EC80 agonist-evoked calcium signal | activity change, negative = inhibition, % (concentration not given with the values) | 0.02% of 390,000 active; in the data active means activity change below about -50%; inconclusive means about -30% to -50%; inactive means above about -30%;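 note: stimulus is agonist 54-4 at its EC80 concentration; % is set by controls: 0 for no effect and ±100 for the full control effect; compound concentration not given in the record; the text of the record puts the active cut at -80%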
Target sequence (Q9GZU1 whole entry, looked up): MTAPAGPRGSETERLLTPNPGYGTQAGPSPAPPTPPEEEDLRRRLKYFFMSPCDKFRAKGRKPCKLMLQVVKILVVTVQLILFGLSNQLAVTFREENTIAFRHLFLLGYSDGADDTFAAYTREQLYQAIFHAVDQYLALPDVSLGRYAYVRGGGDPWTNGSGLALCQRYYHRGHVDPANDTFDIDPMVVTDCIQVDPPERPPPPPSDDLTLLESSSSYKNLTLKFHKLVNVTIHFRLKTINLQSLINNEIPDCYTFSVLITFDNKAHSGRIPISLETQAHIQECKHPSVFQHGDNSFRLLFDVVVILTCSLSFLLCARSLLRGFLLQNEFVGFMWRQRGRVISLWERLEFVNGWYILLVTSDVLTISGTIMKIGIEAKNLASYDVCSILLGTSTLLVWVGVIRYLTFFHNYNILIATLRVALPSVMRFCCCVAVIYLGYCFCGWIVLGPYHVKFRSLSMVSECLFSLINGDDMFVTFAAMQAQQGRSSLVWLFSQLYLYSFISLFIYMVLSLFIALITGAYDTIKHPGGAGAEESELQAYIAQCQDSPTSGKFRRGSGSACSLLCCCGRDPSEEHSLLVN
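Calcium fluorescence in TRPML1-DL cells induced overnight with Tet: a 110 s read after compound pin addition, then a 110 s antagonist read after challenge with 54-4 at 4 uM final (EC80).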
TRPML1 agonist – agonists of human TRPML1 channel; Q9GZU1; TRPML1-expressing cells, Ca2+ dye fluorescence, FDSS; host cell line not named in the record; reference of the full effect not given here; activation, % (test concentration not listed); 0.12% of 410,000 active; in the data active = activation above about 50%; inconclusive = about 30% to 50%; inactive = below about 30%; note: 0% is about no effect; the text of the record puts the active cut at 80%
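Calcium fluorescence on an FDSS kinetic reader gave the read-out. Tet-induced TRPML1-DL cells were plated overnight, dye-loaded (Ca8 with quencher, 45-90 min, room temperature, dark), then read 110 s after compound addition, and again 110 s after 4uM final 54-4 (EC80).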
Active calls of the source: *; u = inconclusive; x = no result given; [ ] = dose if it differs, or a comment.

Each structure is followed by: D2 potentiator, D2 agonist, PINK1 modulator, Six1-Eya2 blk, TRPML1 inh, TRPML1 agonist
> Cc1c(Cl)cccc1NC(=S)C(=C([O-])c1ccc(Cl)s1)[n+]1ccccc1
    -8, 0.2, -0.6%, -16, -6, -0.3
> CCOC(=O)c1cnc2c(C)cccc2c1Nc1ccc(OC(C)C)cc1
    x, x, 0.8%, x, -6, -0.2
> COc1ccccc1C1CC(=O)Oc2cc(C)c(Br)c(C)c21 (stereo unspecified)
    -4, -2.3, 0.9%, -2, -4, 1.4
> COc1ccccc1CNC(=O)c1oc2ccc(S(=O)(=O)N3CCCCC3)cc2c1C
    x, x, 0.5%, x, -15, -0.5
> COc1ccc(CN2CCc3c(c(=O)n4ncc(C(=O)N5CCN(c6ccc(F)cc6)CC5)c4n3C)C2)cc1
    x, x, -0.1%, x, -2, 1.3
> COc1cccc(NC(c2nnc(-c3ccccc3)o2)c2ccc(F)cc2Cl)c1 (stereo unspecified)
    x, x, -0.9%, x, -24, 2.2
> CCCCCSc1nc2c(c(=O)[nH]c(=O)n2C)n1CC
    -1, -0.4, 1.1%, 19, 1, 0.5
> Cc1ccc(OC(=O)CCC(=O)Nc2ccc(C)c(C)c2)cc1
    -6, -1.9, -0.5%, 11, -9, 1.3
> Cc1ncc([N+](=O)[O-])n1Cc1ccc(F)cc1
    10, -4.3, 0.0%, 4, 6, 0.4
> CCc1cccc(CC)c1N(COC)C(=O)Cn1cnc2ccccc21
    -2, 1.9, -1.5%, -9, 10, 11
> Brc1ccccc1-c1nnc(CSc2nnc3sc4ccccc4n23)o1
    -4, -4.1, -1.3%, -9, 3, -0.5
> Cc1cc(S(=O)(=O)Nc2ccc(C(=O)NCC3(N(C)C)CCCCC3)cc2)ccc1F
    -6, -1.5, -4.5%, 9, 6, -0.4
> N#Cc1c(C(F)(F)F)cc(-c2cccs2)nc1N1CCCCC1
    -2, -4.5, 5.0%, 12, 23, -0.5
> CC(=O)Nc1ccc(N2C(=O)CC(N3CCN(Cc4ccc5c(c4)OCO5)CC3)C2=O)cc1 (stereo unspecified)
    -6, -2.5, 5.0%, 5, 6, -0.7
> CN(C)c1ccc(NC(=O)c2sc(SCC(=O)Nc3ccc(Br)cc3)nc2N)cc1
    4, -2.9, -0.2%, 0, -8, -0.6
> Cc1cccc(NC(=O)c2sccc2-n2cccc2)c1C
    12, -3.5, -0.1%, -10, -5, 0.8
> CCOC(=O)C1C(c2cc(OC)c(OC)c(OC)c2)NC(=S)NC1(O)C(F)(F)F (stereo unspecified)
    -9, -1.8, -0.7%, -2, 2, -0.7
> O=C(CSc1nnc2scc(-c3ccc(Cl)cc3)n12)Nc1ccc(F)cc1
    x, x, -0.9%, x, 20, 1.7
> COc1ccc(C(=O)CN2C(=O)NC3(CCCCCC3)C2=O)cc1
    8, 1.1, -0.3%, -1, -2, 0.5
> Cc1cc(/C=N/NC(=O)C(=O)NCc2ccccn2)c(C)n1-c1ccccc1
    -4, -5.8, -2.4%, -5, 14, -0.5
> C[C@H]1CN([C@@H](C)CO)C(=O)c2cc(-c3cccc(C(=O)N(C)C)c3)cnc2O[C@H]1CN(C)C(=O)Cc1ccccn1
    0, -3.6, 1.4%, 2, -9, -0.1
> CCCn1nc(C(=O)NCCc2ccc(S(N)(=O)=O)cc2)c2ccccc2c1=O
    -21, -1.3, -0.7%, 2, 2, 0.2
> CCOc1c(Cl)cc(CNc2ccc3[nH]c(=O)[nH]c3c2)cc1OC
    x, x, 5.6%, x, -2, -0.1
> S=C(NCCC(c1ccccc1)c1ccccc1)Nc1ccccc1Cl
    -10, -5.2, 19%, -5, 36, 0.4
> CC1(C)SC(C)(C)N(C=O)C1C(=O)O (stereo unspecified)
    3, -1.9, -1.1%, -1, 11, 0.6
> CN(C)C(=O)[C@@H]1C[C@H]1[C@@H](NC(=O)OCc1ccccc1)c1ccccc1
    4, 0.4, 0.4%, 8, -1, 0.8
> Cc1ccccc1C(=O)N(C)Cc1ccccc1
    -1, -2.1, -0.8%[38.3 µM], -5, -15, 0.0
> COc1ccc(C(=O)NCc2ccccc2CN2CCCC2)cc1S(=O)(=O)N1CCOCC1
    -17, -6.7, -1.0%, 6, -1, 0.9
> CCCc1cc(N2CCN(c3ccccn3)CC2)n2nc(C)c(-c3ccccc3)c2n1
    -3, -3.5, 0.5%, 15, 9, 1.3
> Cc1ccc(O)c(C(CC(=O)NCC2(c3ccccc3)CCCC2)c2ccccc2)c1 (stereo unspecified)
    x, x, 2.8%, x, 66, 3.0
> CCN(C(=O)COC(=O)c1ncc(Cl)c(Cl)c1Cl)c1c(N)n(Cc2ccccc2)c(=O)[nH]c1=O
    -3, 3.4, 1.9%, 0, -1, -0.4
> COc1ccc(OC)c2sc(NC(=O)C(C)C)nc12
    -7, -3.9, 2.3%, 0, 4, 0.1
> Cc1ccc(CNC(=O)CCSCc2cnn(-c3ccccc3)c2-n2cccc2)cc1
    x, x, 0.7%, x, -11, 5.1
> N#CCC(=O)Nc1ccc(C(=O)Nc2ccc3c(c2)OCO3)cc1
    -2, -1.6, 3.5%, -25, 16, 0.6
> C=CCNC(=O)c1onc(CSc2cccc(C)c2)c1C(=O)O
    -4, -3.3, -0.4%, -1, -6, 1.2
> CCCN(CC(=O)Nc1ccccc1OC)Cc1c(O)ccc2ccccc12
    -8, -1.8, 9.7%, 10, -9, 0.0
> O=C(CCC(=O)CCN1CCCCC1)CCN1CCCCC1
    -19, -2.8, -0.2%, 0, -1, 1.4
> COc1ccc(N2C(=O)c3ccccc3NC2c2ccc(NC(C)=O)cc2)c(OC)c1 (stereo unspecified)
    -2, -2.1, 3.0%, 0, -1, 0.5
> Cc1ccc(NC(=O)c2cc(-c3ccco3)on2)cc1C
    -12, -1.1, 4.8%[38.3 µM], 2, 39, 1.7
> COc1ccc(Cn2c(C)c(C)c(C#N)c2NC(=O)Nc2ccccc2)cc1
    -10, 2.6, 11%, -9, -2, 2.4
> CC(C(=O)NCC1CCCO1)N(C(=O)c1snc(C(N)=O)c1N)c1cccc(F)c1 (stereo unspecified)
    -11, -3.0, -0.2%[38.3 µM], -1, 2, -0.6
> Cc1cc(C)c2oc(-c3cccc(NC(=O)c4ccc(Br)o4)c3)nc2c1
    x, x, 3.8%, x, -6, 2.3
> Clc1ccc(CNCc2cccs2)cc1Cl
    -27, -2.2, 2.2%, 1, -1, -0.1
> O=C(Cc1ccc(S(=O)(=O)N2CCOCC2)s1)NCCc1ccc(F)cc1
    6, -0.7, 0.0%, 1, 0, -0.7
> COc1ccccc1CNC(=O)COC(=O)c1n[nH]c2ccccc12
    -8, -1.3, -0.7%, -13, 24, 0.4
> O=C(NCCC1CCCCN1S(=O)(=O)c1ccc(Cl)cc1)C(=O)NCc1ccco1 (stereo unspecified)
    -21, -4.7, -1.0%, -11, -4, -0.1
> CC(C)(C)NS(=O)(=O)c1ccc(CCC(=O)Nc2cc(Cl)ccc2Oc2ccccc2)cc1
    -3, 2.8, 0.9%, 0, 4, 2.1
> Cn1c(=S)c2[nH]c(SCCN3CCCC3)nc2n(C)c1=O
    -6, -2.6, 0.5%, -13, -3, -0.4
> CC1CCN(C(=O)CCNC(=O)c2ccccc2Cl)CC1
    1, -1.4, -0.4%, 5, -10, -0.3
> CCC(C)(C(=O)NC1CCCCC1)N(Cc1ccco1)C(=O)CNC(=O)c1ccccc1 (stereo unspecified)
    -17, -3.5, -0.6%, 0, 0, 0.4

The list goes on:
Each structure is followed by: D2 potentiator, D2 agonist, PINK1 modulator, Six1-Eya2 blk, TRPML1 inh, TRPML1 agonist
> CCC(=O)N(CCO)Cc1cc2ccc(C)c(C)c2[nH]c1=O
    1, -1.7, -3.3%, 7, 29, -0.1
> CC(C)n1cnc(S(=O)(=O)N2CCCC(C(=O)NCc3ccccc3Cl)C2)c1 (stereo unspecified)
    x, x, 0.6%, x, 0, -1.0
> Cc1ccc(/C=C/c2onc(C)c2S(=O)(=O)N2CCC(C(=O)Nc3ccc(Br)c(C)c3)CC2)cc1
    x, x, 0.1%, x, 1, -0.5
> COc1ccc(CNc2nc3nc4c(c(=O)n3[nH]2)CCC4)cc1
    -7, -5.1, 4.4%, 1, -15, -0.7
> O=C(C1CCN(CCCc2ccccc2)CC1)N(CCc1ccccc1)Cc1ccccc1
    -20, -0.2, 4.7%, -1, 1, 1.6
> CCC(=O)NC(=Nc1nc2ccccc2s1)NC(=O)CC
    -12, 1.2, 1.2%, 14, -2, -0.1
> CCOC(=O)C1=C(C)NC2=C(C(=O)CC(C)(C)C2)C1c1ccc(O)c(OCC)c1 (stereo unspecified)
    3, -2.2, -0.4%, 1, -2, 0.8
> O=C(NCCC1=CCCCC1)C(=O)NCC1OCCCN1S(=O)(=O)c1cc(F)ccc1F (stereo unspecified)
    -4, -2.4, -0.1%, -2, 4, 2.5
> CCOc1ccc(-c2nnc(SCC(=O)NCc3ccccc3)nc2-c2ccc(OCC)c(OC)c2)cc1OC
    x, x, 0.9%, x, -4, 1.0
> COc1ccc(NC(=O)c2sc(=O)n(Cc3ccc(F)c(Cl)c3)c2C)cc1OC
    -2, 3.2, 1.5%, u, x, 0.8
> Cc1ccc(-c2nc3cc(Br)cnc3nc2-c2ccc(C)cc2)cc1
    0, -3.6, 14%, 6, -5, -0.3
> N#Cc1cnn2c(C(F)(F)F)cc(-c3ccccc3)nc12
    -4, -0.8, 3.3%, 1, -2, -1.7
> O=c1cc(/N=C/c2coc3c(ccc4ccccc43)c2=O)[nH]c(=S)[nH]1
    -11, 1.6, -0.7%, 26, -8, 0.7
> CCOC(=O)COc1ccccc1/C=C\[N+](=O)[O-]
    -17, -5.6, -2.0%, 6, 3, 6.7
> Cc1ccc(S(=O)(=O)N2[C@@H](c3ccc(F)cc3)C(C(=O)O)=CC[C@H]2c2ccc3c(c2)OCO3)cc1
    -9, -4.2, -0.9%, 1, 4, -0.6
> CC1CCCC(C)N1C(=O)c1ccc(CS(=O)(=O)c2ccccc2)cc1 (stereo unspecified)
    -12, -2.3, 1.2%, 7, 10, 0.2
> COc1cc(/C=N/NC(=O)c2ccoc2C)cc(OC)c1O
    13, 6.2, -2.0%, -9, 6, -0.3
> O=C(NCCc1csc(-c2ccccc2)n1)c1ccco1
    -9, -4.6, 1.7%, -5, x, x
> COc1cccc(CNC(=O)Cc2csc(Nc3nc(=S)[nH]c4ccccc34)n2)c1
    3, -3.4, 10%, 0, -10, 0.3
> CCN(CC1COc2ccccc2O1)C(=O)CN1C(=O)NC(C)(c2ccccc2)C1=O (stereo unspecified)
    -2, -2.0, 1.7%, -16, 39, 0.8
> CC(=O)Nc1c(C)nn(-c2ccccc2)c1N1CCC(C(=O)Nc2ccc(F)cc2Cl)CC1
    x, x, 1.9%, x, -8, 0.5
